From PubChem
Ecoli rRNA inh = inhibitors of bacterial rRNA selective over humanized ribosomes. E. coli WT GFP vs humanized-ribosome RFP mutants, fluorescence, 24 h; active compounds read low; DMSO median 0, no signal -100. GFP signal change (wild-type ribosome), % (concentration not given with the values). 350,000 compounds, 1.6% hits;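 active means significant combined selectivity score with lowered wild-type GFP, culture density cut under 30%, mutant RFP and density less affected; inactive means any of these conditions unmet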; further: one replicate is shown; some compounds called inactive have numbers as strong as hits
MLL AF4-AF9 inh = MLL-AF4/AF9 protein interaction inhibition; AlphaScreen, biotin-AF4 peptide binding to FLAG-AF9; 350,000 compounds, 0.47% hits; inhibition, % at 10 µM; P42568;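 active means every replicate reaching a set inhibition limit, whatever the replicate mean, cut at about 25% in these data; inconclusive means mean inhibition reaches that limit but some replicates miss it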;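 further: 0% = plate neutral control median and 100% = total signal loss; the record names both 10 and 1 µM as test concentration; the first replicate is given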
Target sequence (P42568 whole entry, looked up): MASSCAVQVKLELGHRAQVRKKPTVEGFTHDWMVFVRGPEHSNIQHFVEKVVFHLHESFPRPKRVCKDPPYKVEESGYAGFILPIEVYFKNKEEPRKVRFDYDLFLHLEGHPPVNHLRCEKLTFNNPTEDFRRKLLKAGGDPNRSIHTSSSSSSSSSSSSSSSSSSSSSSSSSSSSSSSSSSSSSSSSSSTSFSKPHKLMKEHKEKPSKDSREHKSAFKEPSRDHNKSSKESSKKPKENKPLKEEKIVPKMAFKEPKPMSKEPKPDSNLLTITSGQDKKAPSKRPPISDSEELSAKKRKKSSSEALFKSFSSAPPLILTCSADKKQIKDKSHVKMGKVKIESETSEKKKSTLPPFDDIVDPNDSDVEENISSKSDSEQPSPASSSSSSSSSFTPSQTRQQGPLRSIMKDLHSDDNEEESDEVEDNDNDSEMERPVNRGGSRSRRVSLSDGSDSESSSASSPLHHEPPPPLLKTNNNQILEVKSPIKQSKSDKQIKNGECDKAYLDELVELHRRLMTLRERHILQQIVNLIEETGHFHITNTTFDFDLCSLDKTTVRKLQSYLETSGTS
Vif TR-FRET = inhibitors of Vif binding to APOBEC3G peptide, primary screen, biochemical, TR-FRET, GST-Vif 1-94, biotin-A3G peptide, dose response retest (AID 1117319); TR-FRET GST-Vif / biotin-A3G peptide binding; higher % means a stronger effect; test concentration not given here; strong numbers were not always called active; inhibition, %, or IC50 in µM where a hit was titrated; 260,000 compounds, 0.57% hits;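 active means above the screen mean plus three standard deviations and confirmed in dose response; inconclusive means results disagree or hit not tested in dose response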;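 further: Vif residues 1-94 fused to GST binding biotinylated APOBEC3G peptide 110-148; 0% = full assay without inhibitor and 100% = GST in place of GST-Vif; retest series ran down from 100 µM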
Bfl-1 A1 inh = inhibitors of the anti-apoptotic protein A1, read as caspase activation; caspase activation, % (no concentration beside the values); MEF A1-2A-BIM cells, Caspase-Glo 3/7 luminescence, 3 h; percent of clofoctol response, vehicle zero; 330,000 compounds, 0.066% hits;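 active means over half of replicate activation scores above 10%, or exactly half above 10 with the replicate mean above 10; inconclusive means replicate mean below 10 yet half the replicates above 10; inactive means over half of replicates below 10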;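 further: wells of about 30 µL received 50 nL stock; many hits fall short of the cut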
Beta apoptosis = beta cell apoptosis inhibition | AID 435005 | 300,000 compounds, 0.8% hits | protection from apoptosis, % (concentration not given with the values) | INS-1E cytokine-induced death, ATP luminescence, 48 h; percent of positive-control rescue, neutral wells zero;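 active means all replicates at 75% or more, or half of them and the mean; inconclusive means half reach 75% but not the mean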;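 further: 0% = cytokine-treated negative control wells and 100% = positive control rescue; higher means more ATP so stronger rescue from cytokine killing; wells of about 40 µL received 100 nL stock; the first replicate is given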
Calb FLC = affects C. albicans growth with fluconazole; growth inhibition, % (test concentration not listed); AID 1979; C. albicans CaCi-2 (fluconazole-resistant clinical isolate) + fluconazole, Alamar Blue growth, 48 h; 300,000 compounds, 0.57% hits;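 active means most replicates above 75%; inconclusive means exactly half above 75%; inactive means most below 75%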;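 further: all wells also contain fluconazole at 8 µg/ml as a sub-toxic cotreatment; 0% = median of DMSO wells and 100% = median of geldanamycin control wells; wells of about 8 µL received 7.5 nL stock; the first replicate is given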
T cruzi repl = blocks replication of Trypanosoma cruzi. inhibition, % (no concentration beside the values). 300,000 compounds, 1.4% hits. T. cruzi beta-gal in NIH3T3, luminescence, 90 h;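 active means mean inhibition across valid replicates above about 55%, limit read from the data; inconclusive means mean below that limit but half or more replicates reach it; inactive means mean below it, under half of replicates reach it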;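 further: signal also drops with host cell toxicity which is not excluded here; 0% = plate median of DMSO wells and 100% = zero luminescence signal; higher percent means less beta-gal luminescence so fewer parasites; stock transfer was 50 nL into about 50 µL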
RanGTP-Imp inh = inhibitors of RanGTP-importin-beta interaction, primary screen, biochemical, FRET, CFP-Ran, YFP-importin-beta, homogeneous; AID 2216; 300,000 compounds, 1.1% hits; inhibition, % (test concentration not listed); cell-free CFP-Ran/YFP-importin-beta FRET ratio;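 active means most replicates above 15%; inconclusive means exactly half above 15%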;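 further: 0% = DMSO wells and 100% = Ran loaded with GDP instead of GTP; wells of about 40 µL received 100 nL stock; the first replicate is given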
Ecoli rRNA inh OD600 = recorded beside Ecoli rRNA inh, whose call it bears; OD600 change, %; measured here: OD600 growth;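 optical density of the mix in the first replicate; 0 = DMSO median and -100 = no signal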
Ecoli rRNA inh RFP = recorded beside Ecoli rRNA inh, whose call it bears; RFP signal change, %; measured here: RFP humanized mutant strains;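 first replicate; 0 = DMSO median and -100 = no signal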
Numbers without * were called inactive; ? = inconclusive; . = no result given; & = joins results of further samples. This is a subset; the hit share may differ from the screen's.

SMILES	Ecoli rRNA inh	Ecoli rRNA inh OD600	Ecoli rRNA inh RFP	MLL AF4-AF9 inh	Vif TR-FRET	Bfl-1 A1 inh	Beta apoptosis	Calb FLC	T cruzi repl	RanGTP-Imp inh
CSc1ncccc1C(=O)N(C)CC(=O)Nc1ccc(Cl)c(C(F)(F)F)c1	2	-3	6.8	4.7	.	0.1	-6	3	11	-1.0
N#Cc1c(SCC(=O)Nc2ccccc2)nsc1SCC(=O)Nc1ccccc1	6	17	1.8	-1.1	7%	2.5	4	35	-10	-4.5
COc1ccc(C2C(C(C)=O)=C(C)N=c3s/c(=C\c4cc(C)n(C)c4C)c(=O)n32)c(OC)c1 (centres undefined)	.	.	.	.	13%	0.4	-1	8	21	-136
O=C(Nc1nccs1)c1ccc(Br)s1	12	-5	-5.5	-1.0	-17%	-0.1	-5	-8	-10	2.3
Cc1cccc(OCCCC(=O)Nc2ccc(N3CCCCC3)cc2)c1C	.	.	.	.	3%	-0.2	5	-1	1	6.4
COc1cc(C=O)ccc1OCCOCCOc1ccc(Cl)cc1	.	.	.	.	7%	-0.1	-3	2	-48	0.3
COc1ccccc1NC(=O)C(C)OC(=O)c1nc2nc(C)cc(C)n2n1 (centres undefined)	5	7	-0.6	-27	-4%	-0.2	-5	5	-4	-3.6
Cc1cc(C)n(-c2ccc(C(=O)NCC(=O)Nc3cc(Cl)ccc3Cl)cc2)n1	-6	-34	12	-20	.	2.1	-2	.	.	.
Cc1ccc(S(=O)(=O)N(C)C)cc1NC(=O)CCc1c[nH]c2ccccc12	-1	-1	-0.9	8.9	32%	1.1	-3	-5	1	-1.1
CCOC(=O)c1c(NC(=O)c2ccc(Cl)s2)sc(C)c1C	4	-1	16	5.5	.	-0.3	.	6	9	1.3
Cc1ccc(C)c(NC(=O)c2ccccc2O)c1	.	.	.	.	-3%	-1.4	3	-9	-15	7.6
O=C(Nc1nnc2n1CCS2)c1ccc(Br)o1	2	1	-2.1	-1.9	.	0.6	-1	-9	-17	-0.8
Cc1cccc(Oc2ccc(NC(=O)c3ccccc3C(=O)O)cc2)c1	-23*	2.0*	2.9*	-5.0	16%	0.0	3	-12	-6	-1.3
CCCCn1c(N)c(N(CCOC)C(=O)c2cccc(S(=O)(=O)N3CCCCC3)c2)c(=O)[nH]c1=O	3	3	-2.1	-5.4	8%	0.6	0	3	-9	6.5
CCC(NC(=O)C1CCCC1)c1ccc(C)cc1 (centres undefined)	-2	-1	-0.7	-1.6	.	1.1	-7	2	-6	2.4
COc1ccc(N2CCN(C3CCCN(Cc4cccc(OC)c4)C3)CC2)cc1 (centres undefined)	4	0	-1.2	15	.	-0.1	-4	-6	38	?
CC1Cc2ccccc2N1CC(=O)Nc1ccc(S(=O)(=O)N(C)C)cc1 (centres undefined)	6	0	1.5	-6.9	.	0.5	1	22	7	3.6
CCN(CC(=O)Nc1ccccc1C(F)(F)F)C(=O)c1ccccc1Sc1ccccc1C#N	-9	-10	1.8	1.4	-3%	-0.1	1	.	.	.
COC(=O)Cc1[nH]c(=O)[nH]c1C(=O)OC	6	8	-7.7	-7.9	1%	0.5	3	10	-9	?
CN(C)CCNC(NC(=O)c1cccs1)C(Cl)(Cl)Cl (centres undefined)	.	.	.	.	.	-1.0	2	-10	24	-2.9
CCN1CCN(c2nc(C)c3c(n2)CC(C)CC3=O)CC1 (centres undefined)	16	-4	1.5	-0.4	.	-0.4	-4	-2	13	-1.6
COc1ccc(NC(=O)CCN2CCCC2)c(OC)c1	.	.	.	.	23%	1.5	-7	-1	-7	2.5
O=C(Nc1ccc(Cl)cc1)N1N=CCC1c1ccccc1 (centres undefined)	-14	-13	-2.1	-1.8	-3%	0.2	0	-2	-3	-2.1
CC1CCCC(C)N1CC(O)COC1CCC(C(C)(C)C)CC1 (centres undefined)	-16	-16	-3.6	1.6	.	0.3	-8	20	35	4.2
COc1ccc([C@H]2CC(=O)C=C(c3ccc(C(F)(F)F)c(C(F)(F)F)c3)C2)cc1OC	3	1	6.3	-18	.	1.3	14	.	.	.
CCCn1c(NC(=O)CN2C(=O)NC3(CCCC3)C2=O)nc2ccccc21	2	11	-1.4	-31	2%	-1.0	0	0	-3	3.4
COc1ccc(C(CNC(=O)c2ccc(Cl)c(S(=O)(=O)N3CCCC3)c2)N2CCCC2)cc1 (centres undefined)	14	11	3.1	1.8	.	0.2	1	.	.	.
CCOC(=O)C1CCN(Cc2ccc(F)c(F)c2)CC1	.	.	.	.	?	-0.2	-10	8	-3	3.4
CC(Sc1nnnn1-c1cccc(F)c1)C(=O)NC1CCCC1 (centres undefined)	-1	-10	5.1	-0.3	.	0.9	-8	.	.	.
CSCC(C)N1CCC(Oc2cccc(C(=O)NCc3ccccn3)c2)CC1 (centres undefined)	21	20	1.1	0.9	.	-0.1	-5	2	36	30*
CN1CCN(S(=O)(=O)c2cccc(C(=O)NCCOc3ccccc3F)c2)CC1	5	12	0.0	8.1	.	-1.1	0	-12	5	3.7
CC1CCN(S(=O)(=O)c2ccc(C(=O)N3CCOCC3)cc2)CC1	4	-3	0.7	2.4	.	-1.1	.	-7	-4	?
COC(=O)c1ccc(CSCC(=O)Nc2cc(OC)cc(OC)c2)o1	.	.	.	.	-9%	0.5	-5	16	-1	3.0
COc1ccccc1CNC(=O)CCc1nc2ccccc2c(=O)[nH]1	.	.	.	.	-1%	1.3	-2	3	-3	-6.1
Cc1cc(C)nc(OC(C(=O)O)C(OCCC(C)C)(c2ccccc2)c2ccccc2)n1 (centres undefined)	20	14	8.4	-1.9	.	-1.5	7	62	-13	-2.1
O=C(NCCOc1ccccc1Cl)C(=O)Nc1ccccc1	1	7	2.8	-3.9	-6%	0.2	2	4	-4	3.3
Cc1ccc(S(=O)(=O)C2(C(=O)N3CCN(c4cc(C)ccc4C)CC3)CC2)cc1	-31	-30	4.3	38*	25%	0.0	1	7	13	0.6
Fc1ccc(/C=N/NC(=S)Nc2cccnc2)cc1	4	11	2.2	1.4	4%	0.5	2	22	-10	0.2
C=CCC(=O)N1CCCC(CNC(=O)c2ccc(-c3ccccc3)cc2)C1 (centres undefined)	-25	-24	-0.9	-0.2	.	-0.1	-1	-2	2	-0.9
O=C(O)c1cc(-c2ccc(Cl)s2)nc2ccccc12	-27*	-8.2*	-5.0*	-0.6	-44%	-0.6	1	1	-9	2.0
O=C(COC(=O)c1cccc(S(=O)(=O)N2CCc3ccccc32)c1)NC1CCS(=O)(=O)C1 (centres undefined)	.	.	.	.	3%&-2%	-0.2	0	8	-2	-3.3
O=C(NCc1cccnc1)C(=O)Nc1nccs1	.	.	.	.	25%	0.8	0	-7	-6	-1.2
COc1ccc(C(=O)C(C)Sc2nnc(C3CC3)n2C2CC2)cc1 (centres undefined)	4	9	0.2	?	-1%	-0.3	-13	.	.	.
CNc1ccc(S(=O)(=O)NCC(=O)OCC(=O)Nc2cccc(Cl)c2Cl)cc1[N+](=O)[O-]	.	.	.	.	3%	0.8	-4	4	9	-2.8
COC(=O)c1ccc(Cn2c(C)cc(C)[n+]2C)o1	.	.	.	.	69%	0.0	-1	-7	-7	2.3

Two entries from above, bar-delimited:
Structure | Ecoli rRNA inh | Ecoli rRNA inh OD600 | Ecoli rRNA inh RFP | MLL AF4-AF9 inh | Vif TR-FRET | Bfl-1 A1 inh | Beta apoptosis | Calb FLC | T cruzi repl | RanGTP-Imp inh
C=CCC(=O)N1CCCC(CNC(=O)c2ccc(-c3ccccc3)cc2)C1 (centres undefined) | -25 | -24 | -0.9 | -0.2 | . | -0.1 | -1 | -2 | 2 | -0.9
COc1ccc(C(=O)C(C)Sc2nnc(C3CC3)n2C2CC2)cc1 (centres undefined) | 4 | 9 | 0.2 | ? | -1% | -0.3 | -13 | . | . | .

Next part.
SMILES	Ecoli rRNA inh	Ecoli rRNA inh OD600	Ecoli rRNA inh RFP	MLL AF4-AF9 inh	Vif TR-FRET	Bfl-1 A1 inh	Beta apoptosis	Calb FLC	T cruzi repl	RanGTP-Imp inh
Cc1csc(CNc2ncnc3ccc(-c4cccc(Cl)c4)cc23)c1	-16	-34	49	1.9	.	0.7	-4	.	.	.
Cc1c(/C=C2\NC(=O)NC2=O)c2ccccc2n1C	-5	-1	-1.1	8.2	-8%	0.7	-1	-7	-1	6.9
CCOc1cc(C2C(C(=O)OC)=CN(C3CCCC3)C=C2C(=O)OC)cc(Br)c1O	.	.	.	.	-4%&-5%	0.1	-1	-2	16	?
CCOc1cccc(/C=N/NC(=S)Nc2cc(S(=O)(=O)N3CCOCC3)ccc2N2CCOCC2)c1O	-12	-12	-5.6	-9.3	14%	-0.2	.	-6	15	0.4
Cc1cc(Cl)c2ccccc2n1	6	7	1.9	3.7	6%	0.9	-4	19	-11	1.3
O=C(CN1C(=O)CCSc2ccc(S(=O)(=O)N3CCCC3)cc21)NCc1ccccc1Cl	4	7	-3.1	-1.1	.	-0.1	-5	10	-21	0.5
COc1cccc(-c2nc3ccccc3s2)c1O	9	8	4.6	1.8	1%	-7.4	-11	?	1	-0.4
COc1cc(/C=C(\NC(=O)c2ccccc2)C(=O)N2CC3CC(C2)c2cccc(=O)n2C3)cc(OC)c1OC (centres undefined)	7	5	5.1	-8.7	-7%	-0.4	-1	4	-6	-0.3
CCOC(=O)N1CCN(C(=O)/C=C/c2ccc(OC)cc2)CC1	-2	0	-1.0	0.5	?	0.5	-6	14	-1	-0.1
O=C(Cn1cnc([N+](=O)[O-])c1)Nc1ccc(F)c(Cl)c1	49	-4	8.4	-1.6	2%	.	.	3	4	0.3
O=C(c1ccc(Cl)cc1)N1CCN(CCOc2ccccc2)CC1	-3	-8	1.5	-1.7	0%	1.0	1	-19	16	-2.1
O=C(COc1ncnc2ccccc12)NCc1ccco1	20	20	-0.5	-2.9	-5%	2.8	-4	-4	-8	0.8
Cc1ccc(CN=c2c([N+](=O)[O-])nn(-c3ccc(Cl)cc3)n2O)cc1	-46	-64	-5.5	?	-6%	0.2	6	-14	20	4.1
Cc1ccnc2nc(C(=O)OCC(=O)NC3CCCC(C)C3C)nn12 (centres undefined)	10	15	-1.6	-0.8	-7%	0.3	2	.	.	.
COc1ccc(COc2ncnc3ccc(Br)cc23)cc1F	-6	-3	-0.3	0.1	-57%	-0.9	-8	19	3	-0.2
CCN1CCN(c2ccc(S(=O)(=O)N3CCOCC3)cc2NC(=O)c2ccc(F)cc2Cl)CC1	1	-2	0.5	0.1	-1%	1.2	1	-3	18	-1.3
Cc1ccccc1N1CCN(CC(=O)Nc2ccccc2C(=O)NC2CC2)CC1	-16	-14	0.0	6.9	.	-1.2	-7	.	.	.
Cc1cc(C)cc(NC(=O)CSc2ccc(-c3ccccn3)nn2)c1	1	-1	0.1	-2.4	-6%	1.2	24	1	34	0.1
CCCN(CCC)CC(O)COc1ccccc1C(=O)Nc1ccccc1 (centres undefined)	-6	-3	-0.5	21	.	0.4	-5	4	.	8.8
